# HSV replic up = enhancers of HSV replication in host cells, fold increase, host cell viability. HSV replication augmentation in cells. maximum fold increase. 220,000 compounds, 0.005% hits;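 active means peak rise of 1.5-fold or more in the series; tested in PC3 cells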;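 further: first round at 10 µM; read as green reporter fluorescence; hits show the peak of a series up to 25 µM; 1 = signal of infected wells without compound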
# INS promoter inh = inhibitors of insulin promoter-driven GFP, primary screen, imaging, TRM-6 cells (human fetal islet line), eGFP reporter, cell count; reporter expression induced with tamoxifen; inhibition, % at 2 µM; 130,000 compounds, 0.9% hits; AID 1273, 2008;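 active means inhibition above the mean plus 3 SD, with well images judged a real hit on visual review, cut at about 60% in these data, passing the limit was not always enough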
# GALR2 agonist = GALR2 receptor agonists, primary screen, cell-based; Galanin receptor type 2 (Homo sapiens), O43603; GALR2-expressing cells, agonist activation read-out; activation, %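 (tested at 5 µM)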; 140,000 compounds, 0.48% hits;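 active means above mean plus 3 SD of all compounds, about 5% in these data, not always enough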;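 further: 0% = vehicle buffer wells and 100% = reference agonist at full effect; tested in CHO reporter cells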
# Target sequence (O43603 whole entry, looked up): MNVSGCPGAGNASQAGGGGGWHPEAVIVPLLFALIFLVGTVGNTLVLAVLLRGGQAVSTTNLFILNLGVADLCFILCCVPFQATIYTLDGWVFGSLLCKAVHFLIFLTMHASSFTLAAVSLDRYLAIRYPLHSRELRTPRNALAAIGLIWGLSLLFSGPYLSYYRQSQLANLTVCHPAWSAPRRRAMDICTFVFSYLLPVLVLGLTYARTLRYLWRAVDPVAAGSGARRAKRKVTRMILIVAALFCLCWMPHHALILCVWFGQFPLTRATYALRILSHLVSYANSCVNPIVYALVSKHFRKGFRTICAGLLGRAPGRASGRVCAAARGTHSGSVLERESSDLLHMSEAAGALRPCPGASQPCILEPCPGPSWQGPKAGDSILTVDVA
# PKD1 inh = inhibitors of human PKD1 kinase, biochemical, fluorescence polarization | PKD1 kinase fluorescence polarization assay | inhibition, %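 (about 10 µM by stock and volumes)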 | 200,000 compounds, 0.056% hits | AID 797, 2007;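 active means inhibition of 50% or more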;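 further: controls were vehicle for no effect and a reference inhibitor for full effect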
# RGS16-Gao = modulators of RGS16 binding to Galphao, primary screen, biochemical, human proteins, multiplexed bead flow cytometry | Regulator of G-protein signaling 16 (Homo sapiens) + Guanine nucleotide-binding protein … | bead-based flow cytometry RGS16-Galphao binding, fluorescence; actives lie on both sides | binding response (% of control), % at 10 µM | 220,000 compounds, 0.38% hits | AID 1441, 2008;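 active means below 25% or above 175%, edge rows of some plates excepted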;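 further: Galphao activated by GDP with aluminum fluoride before binding; 100% = wells without compound and 0% = beads without RGS; some results beyond the cut were filed as inactive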
# Target sequence (O15492 whole entry, looked up): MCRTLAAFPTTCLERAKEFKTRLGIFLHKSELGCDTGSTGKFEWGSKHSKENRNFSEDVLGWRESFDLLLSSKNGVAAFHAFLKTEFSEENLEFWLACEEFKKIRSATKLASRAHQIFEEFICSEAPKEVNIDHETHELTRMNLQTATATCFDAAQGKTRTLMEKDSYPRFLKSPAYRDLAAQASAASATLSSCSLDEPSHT
# Target sequence (P09471 whole entry, looked up): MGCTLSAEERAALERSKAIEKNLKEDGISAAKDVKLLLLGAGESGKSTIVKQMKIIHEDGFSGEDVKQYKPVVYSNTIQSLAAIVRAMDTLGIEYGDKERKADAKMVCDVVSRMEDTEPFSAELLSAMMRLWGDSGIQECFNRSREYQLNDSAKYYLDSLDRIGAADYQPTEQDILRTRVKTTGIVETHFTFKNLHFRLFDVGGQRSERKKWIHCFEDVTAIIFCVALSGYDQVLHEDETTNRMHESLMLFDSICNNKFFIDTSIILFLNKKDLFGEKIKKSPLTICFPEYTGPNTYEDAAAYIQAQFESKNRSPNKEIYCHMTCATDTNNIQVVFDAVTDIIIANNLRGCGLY
# INS promoter inh cell count = further read-out of INS promoter inh, marked with its call; normalized cell count, %; measured here: cell count, toxicity; reference of the scale not given here;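 cells exposed to compound for 48 h; stained nuclei by imaging scaled within each plate; lower means fewer cells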
# HSV replic up primary fold = also measured in HSV replic up; calls as there; fold increase; compound at 10 µM; measured here: primary screen fold increase 10 uM; tested in PC3 cells;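 GFP signal in the first replicate; 1 = infected wells without compound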
# * marks the source's active call; other numbers are inactive results; i = inactive; / = not tested or not shown.
SMILES,HSV replic up,HSV replic up primary fold,INS promoter inh,INS promoter inh cell count,GALR2 agonist,PKD1 inh,RGS16-Gao
CCOc1ccc(C(=O)Nc2cccc(C(=O)O)c2C)cc1Cl,i,0.97,-2.9,66.7,-0.1,3.9,107.5
CC(C)N1CCC(N2CCN(CCCn3cccn3)CC2CCO)CC1 (configuration not stated),i,0.97,/,/,/,-0.8,106.5
CCC(=O)Oc1ccc2c(C)cc(=O)oc2c1C(=O)CC,i,0.91,/,/,/,/,108.0
CC(C)Nc1ncnc2c1cnn2-c1ccccc1,i,1.03,/,/,-1.5,1.0,103.0
CCOC(=O)c1ccc(CNC(=O)Cn2nnc(-c3ccccc3)n2)o1,i,0.99,-100.0,104.5,/,3.8,93.6
COc1ccc(CS(=O)c2nc(C)cc(C)c2S(C)(=O)=O)cc1 (configuration not stated),i,1.02,-54.5,95.3,/,-2.3,99.4
COc1cc2cccc(OC)c(=O)c2c(OC)c1OC,i,0.95,/,/,/,4.8,103.0
COc1cccc(/C=C2\N=C(SC)SC2=O)c1OC,i,1.13,/,/,0.1,-2.3,101.3
O=C1Nc2ccccc2C1Cc1ccccc1 (configuration not stated),i,0.9,/,/,/,/,105.7
O=c1oc(-c2cccc(S(=O)(=O)N3CCOCC3)c2)nc2ccccc12,i,1,-12.1,107.6,-1.1,-13.0,86.3
O=C(NC(=S)Nc1ccc(N2CCOCC2)cc1)c1ccc(Cl)cc1,i,0.88,37.0,128.3,0.1,2.0,109.6
O=C(O)c1ccc(C(=O)c2ccc3c(c2)C(=O)N(Cc2ccco2)C3=O)cc1,i,0.89,-81.2,144.0,-1.8,11.8,101.8
CC1=C(O)C(=O)OC1c1c(Cl)cccc1Cl (configuration not stated),i,0.96,/,/,/,/,91.9
COc1ccccc1C/C(N)=N/OC(=O)COc1ccc(C)cc1C,i,1.2,-3.7,117.2,-2.9,3.9,/
COc1cccc(C2C(C(=O)Nc3cccnc3)=C(C)Nc3nnnn32)c1OC (configuration not stated),i,0.99,/,/,-1.6,-10.4,101.2
CC(=O)c1cccc(NC(=O)CN2C(=O)C3C4C=CC(C4)C3C2=O)c1 (configuration not stated),i,1.17,13.3,126.5,-1.0,-19.4,100.8
O=S(=O)(NCCc1ccccc1F)c1cccc(S(=O)(=O)N2CCOCC2)c1,i,0.93,/,/,-1.8,-3.4,99.9
O=C(CCCn1c(=S)[nH]c2cc3c(cc2c1=O)OCO3)N1CCN(c2ncccn2)CC1,i,0.88,7.7,70.4,-2.5,-2.5,93.9
C=CCn1c(=O)n(C(=O)OCC)c2cc(Br)ccc21,i,0.9,0.0,141.6,/,-3.5,95.4
N/C(Cc1ccc(Cl)cc1Cl)=N\OC(=O)c1ccccc1,i,0.87,/,/,/,0.0,96.8

# Given with two lines to a compound: two of the compounds above
# Order of values – HSV replic up | HSV replic up primary fold | INS promoter inh | INS promoter inh cell count | GALR2 agonist | PKD1 inh | RGS16-Gao
- CC(C)Nc1ncnc2c1cnn2-c1ccccc1
    i | 1.03 | / | / | -1.5 | 1.0 | 103.0
- N/C(Cc1ccc(Cl)cc1Cl)=N\OC(=O)c1ccccc1
    i | 0.87 | / | / | / | 0.0 | 96.8

# The main list resumes, repeating the 5 entries before the break.
SMILES,HSV replic up,HSV replic up primary fold,INS promoter inh,INS promoter inh cell count,GALR2 agonist,PKD1 inh,RGS16-Gao
CC(=O)c1cccc(NC(=O)CN2C(=O)C3C4C=CC(C4)C3C2=O)c1 (configuration not stated),i,1.17,13.3,126.5,-1.0,-19.4,100.8
O=S(=O)(NCCc1ccccc1F)c1cccc(S(=O)(=O)N2CCOCC2)c1,i,0.93,/,/,-1.8,-3.4,99.9
O=C(CCCn1c(=S)[nH]c2cc3c(cc2c1=O)OCO3)N1CCN(c2ncccn2)CC1,i,0.88,7.7,70.4,-2.5,-2.5,93.9
C=CCn1c(=O)n(C(=O)OCC)c2cc(Br)ccc21,i,0.9,0.0,141.6,/,-3.5,95.4
N/C(Cc1ccc(Cl)cc1Cl)=N\OC(=O)c1ccccc1,i,0.87,/,/,/,0.0,96.8
CC[C@H](C)C1NC(=O)[C@H](CC(=O)O)NC(=O)c2cc([N+](=O)[O-])cc(I)c2NCCC(C(N)=O)NC1=O (some centres not stated),i,1,-18.2,117.2,-1.8,-5.2,88.4
Cc1ccc(Cn2nnc3c(=O)n(CC(=O)N4CCCCC4)cnc32)cc1,i,0.98,/,/,0.8,-1.2,96.7
COc1ccc(C(C)NC(=O)c2ccc(Br)cc2)cc1OC (configuration not stated),i,0.85,13.8,121.0,-1.2,-3.6,105.8
CC1=NN(c2ccccc2)C(=O)/C1=C/c1cn(C)c2ccccc12,i,1.12,/,/,/,/,101.5
Cc1cccc(/C(N)=N/OC(=O)CCc2ccccc2)c1,i,0.9,-12.9,54.0,-0.5,5.0,112.1
CCCC[C@@H]1CNC(=S)N1CCc1cccc(F)c1,i,0.64,/,/,/,6.2,95.8
CCOc1ccc(C(=O)NCC(=O)N2CCc3ccccc3C2)cc1OCC,i,1.02,-27.8,79.2,/,-7.3,107.3
COc1ccc(C(=O)Nn2cc3c(c2-c2ccccc2)c(=O)n(C)c(=O)n3C)cc1,i,1.26,16.7,147.1,-2.4,-6.2,112.9
O=C(CSc1ccccn1)N/N=C/c1c[nH]c2ccccc12,i,0.88,-18.2,47.7,/,-6.4,109.5
CC(=O)N1CCN(S(=O)(=O)c2cccc(C(=O)Nc3ccc4c(c3)CCC4)c2)CC1,i,1.01,7.9,128.1,-0.1,-5.9,101.1
COc1ccccc1/C=c1\sc2nc(-c3ccccc3OC)nn2c1=O,/,/,/,/,-0.3,10.2,97.1
COc1ccc(/C=C(\NC(=O)c2ccc(C)cc2)C(=O)Nc2c(C)n(C)n(-c3ccccc3)c2=O)cc1,i,1.04,-66.7,41.7,/,-2.9,117.2
CCCCn1c(N)c(C(=S)NC(=O)CC(C)(C)C)c(=O)n(C)c1=O,i,0.95,/,/,0.1,-15.6,127.9
Cc1ccc(-n2cccn2)cc1,i,0.99,/,/,/,-2.4,107.1
C/C=C/C=C\C(=O)Nc1cccc(C2=NOC3(C2)C[C@H](C(N)=O)N(C(=O)CC#N)C3)c1 (some centres not stated),i,0.75,/,/,/,/,89.3
COC(=O)[C@H](CC(C)C)NC(=O)Nc1ccccc1F,i,0.9,/,/,/,/,95.9
Cc1c(Cl)cccc1NC(=O)c1cccc(NC(=O)CCC(=O)O)c1,i,0.85,-25.4,124.7,-2.6,-1.1,103.5
O=C(NNC(=S)Nc1ccc(Cl)cc1Cl)c1ccc(N2CCOCC2)c([N+](=O)[O-])c1,i,0.93,-10.8,127.8,-1.4,-0.6,108.3
COc1ccc(CC(=O)Nc2cc(NC(=O)Cc3ccc(OC)c(OC)c3)cc(C(=O)O)c2)cc1OC,i,1,/,/,/,0.4,106.5
N#CCSc1nnc(-c2ccccc2O)n1Cc1ccccc1,i,0.81,/,/,-1.6,4.3,99.8
CCCN1CNc2c(c(=O)[nH]c(=S)n2-c2ccccc2Cl)C1,i,0.91,26.7,81.0,/,0.9,4.9
CCC(C)(C)NC(=O)C(c1ccc(F)cc1)N(Cc1ccccc1)C(=O)c1cnccn1 (configuration not stated),i,1.09,/,/,/,-1.3,106.6
Cc1cccc(OCCCC(=O)Nc2ccc(N3CCCCC3)cc2)c1,i,0.93,-12.5,87.6,-1.7,-0.1,102.6
Cc1ccc(NC(=O)COC(=O)CCNS(=O)(=O)c2ccc(C)c(C)c2)cc1,i,0.96,-17.5,72.3,-0.2,-1.5,105.1
CCC(=O)N(CC(=O)Nc1sc(C)c(C)c1C(N)=O)C1CCCC1,i,0.88,/,/,/,6.2,98.2
N#Cc1c(NC(=O)c2cc(-n3cnnc3)ccc2Cl)sc2c1CCCC2,i,0.88,16.3,126.3,-1.7,-14.1,102.8
Cn1c(SCc2ccc(Br)cc2)nnc1-c1cccs1,i,0.87,-108.3,134.1,-0.5,6.5,99.8
Cc1cccn2cc(-c3cccc(NC(=O)c4cccs4)c3)nc12,i,0.83,23.1,78.7,/,5.1,98.5
CS(=O)(=O)N1CCN(C(=S)NCc2ccc(Cl)cc2)CC1,i,0.91,/,/,/,5.0,95.5
N/C(=N\OC(=O)Cc1ccccc1)c1cccnc1,i,1.53,/,/,-1.5,4.0,105.8
CCCCC(=O)Nc1sc2c(c1C(N)=O)CCC2,/,/,-16.1,155.8,-2.4,4.9,90.1
O=C(NCc1ccco1)c1cccc2ccccc12,i,1.04,-12.9,114.9,-2.1,-7.8,99.5
O=C(/C=C/c1ccc([N+](=O)[O-])cc1)NCCSCc1ccco1,i,1.08,-39.3,98.8,0.3,0.8,62.1
CN(C)c1ccc(/C=C/C(=O)c2ccc(O)cc2)cc1[N+](=O)[O-],i,0.96,/,/,/,/,101.9
CCOC(=O)/C(C#N)=C1\C(=O)N(Cc2ccccc2)c2ccccc21,i,0.9,/,/,/,/,92.3
CC(=O)Nc1ccc2c3c(cccc13)CC2,i,1.1,-46.1,105.8,-4.0,2.5,/
Cc1cc(NC(=S)Nc2ccccc2)ccc1Br,i,1.14,/,/,-1.6,7.3,97.2
Cc1cc(C(=O)NCc2ccc(S(N)(=O)=O)cc2)c(C)o1,i,1.11,46.1,63.6,-0.2,-0.1,105.0
Cc1cccc(NC(=S)NCc2ccc3c(c2)cc(C)n3C)c1C,i,0.945,/,/,/,-7.7,98.3
O=C(Nc1ccc(OCc2ccccc2)cc1)c1ccccc1,i,0.98,-54.5,102.3,/,-6.6,98.8
Cc1nc(SCC(=O)c2ccc(F)c(F)c2)[nH]c(=O)c1Oc1ccc(Cl)cc1,i,1.01,/,/,/,/,97.4
COc1cc(/C=C2/C(C)=C(C#N)c3nc(N)c(C#N)c(C)c32)ccc1OCC(=O)O,i,1.15,/,/,/,-2.2,96.6
COc1ccc(-c2nc3nc(N)nn3cc2C)cc1F,i,0.98,/,/,/,8.4,95.3
CCC1=NN(C(=O)Cc2ccc([N+](=O)[O-])cc2)C(O)(c2ccncc2)C1 (configuration not stated),i,1.03,/,/,/,-1.0,110.3
Cc1cccc2c(=O)c(Br)c(C)n(Cc3ccccc3)c12,i,1.01,/,/,/,-1.1,97.4
Cc1ccc(C2C3C(=O)N(c4ccccc4)C(=O)C3N3CCCN23)cc1 (configuration not stated),i,1.17,/,/,/,/,99.2
CCC(=O)NC(c1cccs1)c1ccc2cccnc2c1O (configuration not stated),i,0.72,/,/,/,2.6,103.0
CCOC(=O)C1CCN(C(=O)c2cccc(C(=O)N3CCC(C(=O)OCC)CC3)c2)CC1,i,0.9,45.5,89.6,-0.4,-4.0,93.7
COc1ccc(S(=O)(=O)N(Cc2cccs2)C2CCCC2)cc1,i,1.01,3.5,103.4,-2.5,-6.9,102.1
CC(C)CCN1C(=O)CCC1(C)C(=O)NC1CCCCCC1 (configuration not stated),i,0.92,-81.8,107.8,-1.8,-7.7,106.2
CC1=C(C(=O)OC(C)C)C(c2ccc(C)o2)C(C(=O)OC(C)C)=C(C)N1,i,0.94,/,/,/,/,102.5
CCOC(=O)C(C(=O)c1ccccc1)C1CC(C)NC(=S)N1 (configuration not stated),i,1.19,-45.5,80.3,-1.4,-2.1,42.7
O=C(O)c1ccc(-c2nnn(Cc3cccc(C(F)(F)F)c3)n2)cc1,i,0.85,/,/,/,/,89.6
CS(=O)(=O)Nc1ccc2[nH]c(=O)[nH]c2c1,i,0.94,18.2,90.4,/,4.5,118.9
CC(NC(=O)c1ccccc1NS(C)(=O)=O)c1ccccc1 (configuration not stated),i,0.9,-7.9,129.2,-0.2,3.2,99.1
CCCN1CCC(N2CCN(c3cccc(C(F)(F)F)c3)CC2)CC1,i,1.03,0.0,103.2,-4.0,-4.1,99.9
O=C(N/N=C/c1cccnc1)C(O)(c1ccccc1)c1ccccc1,i,1,/,/,-2.6,-8.3,101.3
Cc1ccc(CCSCC(=O)O)cn1,i,1.18,-6.2,56.7,-0.2,-12.0,102.6
CC1=CC(C)(C)Nc2ccc(OC(=O)c3ccco3)cc21,i,1.11,-18.2,134.0,1.6,-7.5,99.9
S=c1[nH]ncn1/N=C/c1ccccc1,i,0.92,0.0,63.9,-1.4,5.8,104.6
N#Cc1ccc(N2CCc3ccccc3C2)c([N+](=O)[O-])c1,i,1.06,-41.9,98.2,-0.3,-4.6,52.2

# Assay outcomes (PubChem BioAssay)
